PrP UTR inh: inhibition of PrP 5' UTR reporter expression. cell-based PrP 5' UTR mRNA reporter, plate reader. inhibition, % (no concentration beside the values). 0.35% of 340,000 active. AID 488862, 2010;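 active = every replicate at 50% or more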;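 also: 0 = median of the neutral control wells; tested in H4 reporter cells; numbers are from one replicate; inactives centre near -14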
RN4220 kill: growth inhibition of S. aureus RN4220, primary screen, OD600 | 16 h | inhibition, % (test concentration not listed) | 0.33% of 330,000 active;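 active = z-score of -3 or lower and OD600 up to 0.18 on both plates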;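 also: plate controls were untreated cells for no effect and reference antibiotic for full effect; stock transfer was 100 nL into about 80 µL; one replicate is shown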
BJeLR lethal: MLPCN primary cell-based screen for lethality selective to Ras in HRASV12 cells; BJeLR (HRASV12) viability, CellTiter-Glo ATP luminescence, 48 h; reference of the scale not given here; inhibition, % (test concentration not listed); 0.17% of 300,000 active; AID 1554, 2009;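 active = replicate mean above 50%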;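 also: 50 nL library stock added to about 25 µL; numbers are from one replicate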
ugtP null kill: growth inhibition of ugtP-null S. aureus, primary screen, RN4220 ugtP deletion, OD600; 16 h; some inactives read as strong as hits; growth inhibition, % (concentration not given with the values); 0.54% of 330,000 active;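 active = z-score under -3 and OD600 up to 0.15 on both plates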;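 also: plate controls were untreated wells for no effect and antibiotic for full effect; wells of about 80 µL received 100 nL stock; the first replicate is given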
Autofluor counter: compound fluorescence in toxin protease inhibitor counterscreen. fluorescence intensity (no concentration beside the values). compound autofluorescence counterscreen, microsphere flow cytometry; hits give high values. AID 624483. 3.1% of 360,000 active;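 active = at least 3 SD above the mean of all compounds, about 16000 in these data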;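 also: 100 nL of 1 mM stock went into each well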
Mtb hypoxia inh: PubChem AID 1159583; fluorescence inhibition, % (no concentration beside the values); 0.1% of 300,000 active; M. tuberculosis hypoxia-regulated fluorescent reporter, fluorescence;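 active = 35 to 45% if threefold the growth effect, above 45% if 1.5-fold the growth effect; inactive = the rest, general growth blockers included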;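 also: wells of about 50 µL received 100 nL stock; 0% = vehicle wells and 100% = reference inhibitor wells; whole bacteria with a GFP reporter of the hypoxia response; strong numbers were not always called active; many hits fall short of the cut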
Mtb hypoxia inh growth: recorded beside Mtb hypoxia inh, whose call it bears; growth inhibition, %; measured here: M. tuberculosis growth (absorbance);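 0% = vehicle and 100% = reference antibiotic; read after six days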
* hit, by the source's call; . = not tested or not shown. The order is random. Share with any hit: about 4%.

Second line of a record – Mtb hypoxia inh | BJeLR lethal | ugtP null kill | Autofluor counter | PrP UTR inh | Mtb hypoxia inh growth | RN4220 kill
CCN(CC)CCn1c(=S)[nH]c2cc(Cl)ccc2c1=O
→ 7.1 | 1.6 | -4.3 | 7979 | 0.6 | 0.9 | 3.4
CCOC(=O)CSc1nc2cc(C(=O)N3CCC(C(N)=O)CC3)ccc2c(=O)n1C1CCCCC1
→ 0.7 | -13.8 | 2.0 | 4057 | -3.0 | -4.5 | -3.3
CCNC(=S)N1CCC(c2nc3ccccc3s2)CC1
→ 13.3 | -3.7 | -7.5 | 10483 | -28.0 | 14.5 | 4.2
O=C(Nc1cccc(S(=O)(=O)N2CCCCCC2)c1)C1CCC1
→ 2.3 | 0.7 | 2.0 | 4243 | -12.1 | -8.4 | 1.9
O=C(O)/C=C\C(=O)Nc1cc(O)ccc1[N+](=O)[O-]
→ 7.5 | 8.6 | 1.7 | 4353 | -20.0 | 0.6 | 7.4
CN(C)c1ccc(C(c2ccc(N(C)C)cc2)c2ccc([N+](=O)[O-])cc2)cc1
→ -4.3 | -3.8 | 52.7 | 2907 | 0.9 | -4.5 | -6.1
O=Cc1c(N2CCC3(CC2)OCCO3)nc2ccccn2c1=O
→ 15.2 | -1.8 | 4.2 | 3728 | -13.7 | -1.7 | 0.6
COc1cc(/C=N/NC(=O)c2ccccc2)ccc1O
→ . | -0.1 | . | 3156 | -7.7 | . | .
CC(=O)N=c1c(C#N)cc2c(=O)n3cccc(C)c3nc2n1CCCOC(C)C
→ 6.9 | -1.3 | 4.9 | 4265 | . | -3.5 | 3.8
CC(=O)c1cccc(NC(=O)c2ccc(OC3CSC3)cc2)c1
→ -0.6 | 6.9 | 2.3 | 3158 | -14.6 | -4.9 | 6.0
CN(Cc1ccc(C(F)(F)F)cc1)C(=O)c1ccc(Oc2ccccc2)cc1
→ -0.1 | -3.5 | 14.1 | 3736 | -6.9 | 0.4 | -3.3
CCn1c(NCc2c[nH]c3ccccc23)nc2ccccc21
→ 15.6 | -4.6 | 11.1 | 3509 | -3.9 | 12.7 | -2.0
COc1ccc(-c2nc(CCNC(=O)c3ccc(Br)o3)cs2)cc1
→ 8.4 | -2.3 | -4.4 | 5257 | 24.0 | 5.7 | 0.1
COc1ccc(C2=NN(C(=O)CN3CCCC3)C(c3ccc(OC)cc3)C2)cc1 (stereo not given)
→ 4.2 | -7.5 | 12.3 | 4751 | . | -3.5 | 2.9
O=C(NC(=S)Nc1ccc(Oc2ccc(Cl)cc2)cc1)c1ccccc1
→ . | 5.7 | 85.8* | 3228 | -7.8 | . | -15.5
CN(Cc1ccco1)S(=O)(=O)c1cc(F)ccc1CN1C(=O)c2cccnc2C1=O
→ 4.1 | -11.0 | 8.7 | 5014 | -30.0 | 2.4 | 2.0
Cc1ccc(C(=O)c2oc3ccccc3c2NC(=O)c2cc(-c3cc(C)ccc3O)n[nH]2)cc1
→ -3.5 | 5.1 | -9.4 | 3297 | 11.2 | -9.1 | 29.0
O=C(CCc1nc2sc3c(c2c(=O)[nH]1)CCCC3)NCCc1ccccc1
→ -3.6 | -0.7 | -6.9 | 4488 | -19.5 | 5.4 | -2.6
CCOc1ccc(Br)cc1S(=O)(=O)Nc1ccccc1N1CCOCC1
→ . | -2.8 | 1.9 | 4144 | -3.4 | . | 1.5
COc1ccccc1N=NC1C(=O)N(C(N)=S)N=C1C (stereo not given)
→ 11.1 | -1.2 | 14.6 | 3311 | -22.5 | 10.9 | 2.1
CCOc1ccc(N=C(C)C2=C(O)c3ccccc3C2=O)cc1
→ -1.1 | 4.3 | 2.5 | 6084 | -70.0 | -3.1 | 5.9
O=c1[nH]c(-[n+]2ccccc2)c(/C=N/NC([S-])=Nc2ccccc2)s1
→ . | 0.9 | . | 4303 | -14.4 | . | .
COc1ccc(CNC(=O)C2CCCN(S(=O)(=O)c3ccc4c(c3)CCCN4C(C)=O)C2)cc1 (stereo not given)
→ -1.7 | 4.3 | 3.1 | 5399 | 7.1 | -6.4 | -0.2
OC(COCCC12CC3CC(CC(C3)C1)C2)CN1CCCC1 (stereo not given)
→ -2.5 | 6.0 | 3.9 | 3482 | -8.5 | 5.4 | 2.4
O=C(Nc1nc(-c2cc(Cl)sc2Cl)cs1)c1ccc(Br)s1
→ 0.8 | 1.3 | 2.0 | 3034 | -18.4 | 4.3 | 9.4
O=S(c1ccccc1)C(c1ccccc1)c1ccccc1 (stereo not given)
→ 13.1 | . | -0.4 | 3420 | -15.5 | 8.9 | 7.0
Cc1ccc(NC(=O)COc2ccc(-n3ccnc3)cc2)cc1Cl
→ . | -3.7 | -19.8 | 3209 | -9.0 | . | -7.2
CC(=O)c1ccc(N(C(=O)CNC(=O)c2ccco2)C(C(=O)NC2CCCC2)c2ccncc2)cc1 (stereo not given)
→ 14.3 | -2.7 | 9.0 | 6440 | -23.6 | 4.8 | 4.1
COc1ccc(CC2NCCC3(O)CCCCC23)cc1 (stereo not given)
→ 2.2 | -3.6 | -0.2 | 3988 | -11.8 | 5.5 | 2.4
CCOC(=O)N1CCN(C(=O)Cn2ncc3c2-c2ccccc2OC3)CC1
→ -2.5 | 1.9 | 8.8 | 4410 | 14.0 | -3.7 | 1.6
COc1ccc(N2C(=O)/C(=C/N(C)C)NC2=S)cc1
→ 3.5 | -2.8 | 3.4 | 4816 | -20.8 | 7.9 | 0.4
Cc1cc(SCn2nnc3ccccc3c2=O)nc2ccccc12
→ -3.9 | 0.7 | -0.5 | 2094 | 3.8 | 4.0 | 2.8
Cc1nn(-c2ccccc2)c(Cl)c1C1C(C#N)=C(N)Oc2c1c(C)nn2-c1ccccc1 (stereo not given)
→ . | 11.3 | 10.2 | 4957 | -10.9 | . | 1.2
C/C(N)=C(/C#N)C(=O)COC(=O)C1=NN(c2ccccc2)C(=O)CC1
→ -6.4 | 5.9 | -1.0 | 3627 | -20.7 | -1.5 | 3.1
COc1ccc2[nH]c3c(NCCCN4CCCC4=O)ncnc3c2c1
→ 9.2 | 1.6 | 8.0 | 12033 | -32.0 | 5.9 | 5.4
O=C1CC(c2ccc3c(c2)OCCO3)Oc2ccc([N+](=O)[O-])cc21 (stereo not given)
→ 4.6 | -8.8 | 39.8 | 3593 | 6.1 | -7.3 | 39.7
NS(=O)(=O)c1ccc(CCNC(=O)c2ccc(CS(=O)(=O)c3ccc(Br)cc3)o2)cc1
→ -8.9 | 3.3 | 0.5 | 4531 | -17.8 | -9.2 | -5.6
CCC(C)(C)NC(=O)C(c1ccccn1)N(C(=O)c1csnn1)c1ccc(C)cc1 (stereo not given)
→ 10.2 | 5.0 | -2.0 | 4265 | -17.2 | 12.0 | 3.2
CC(=O)Nc1ccc(NC(=O)Nc2ccccc2)cc1
→ -1.4 | 9.7 | -1.9 | 4000 | -38.3 | -3.9 | 1.4
Cc1cc(C)n(CCC(=O)NN=Cc2ccc(O)cc2O)n1
→ -1.3 | . | 0.2 | . | . | -0.8 | 0.1
O=C(NCCc1cn[nH]c1)C1CCC(=O)N(CCc2cccc(F)c2)C1 (stereo not given)
→ 5.8 | -2.1 | 10.8 | 4130 | -7.4 | 10.4 | 5.1
CCCCN(CCCC)CCNC(=O)c1cn(C)c2ccc(S(=O)(=O)N(C)C3CCCCC3)cc2c1=O
→ 0.3 | 12.8 | 3.4 | 5397 | 3.8 | 2.4 | 0.1
C/C(NC(=O)c1ccccc1F)=C1\C(=O)C[C@@H]2[C@H]1C2(C)C
→ . | -5.1 | 16.5 | 4794 | -35.3 | . | 2.9
O=[N+]([O-])c1ccc(-c2ccc(/C=N/Nc3nc(N4CCCCC4)nc(N4CCCCC4)n3)o2)cc1
→ . | -8.9 | . | 4365 | -14.4 | . | .
O=C(Nc1ccccc1)ON=C1c2ccccc2-c2ccccc21
→ 5.1 | 6.7 | -1.3 | 10860 | -22.6 | -4.0 | -6.2
N#CCCN(Cc1cccs1)C(=O)Nc1ccccc1
→ -7.0 | 2.7 | 0.7 | 6155 | -17.1 | -2.2 | 4.5
CO/N=C/c1ccc(N2CCOCC2)c([N+](=O)[O-])c1
→ . | 3.9 | . | 3425 | -18.2 | . | .
N#CCCN(C(=O)COC(=O)c1ccc2c(c1)OCCO2)c1ccccc1
→ 7.1 | . | 0.2 | 3732 | -14.6 | 2.9 | -1.1
O=C1C=C(NNC(=O)c2ccccc2Br)CCC1
→ 4.2 | 7.7 | 5.6 | 2562 | -1.0 | -5.1 | 1.0
CCS(=O)(=O)c1ccc2oc(=O)c(/C=C(\O)c3ccc(Cl)cc3)nc2c1
→ 2.3 | -30.2 | 2.1 | 4477 | -19.7 | 6.8 | 0.9
CC(C)CC(=O)N1CCN(Cc2ccc(C(F)(F)F)cc2)CC1
→ -3.7 | 3.5 | 1.2 | 4104 | -4.8 | 5.0 | -0.8
N=c1c2c(ncn1CCN1CCOCC1)Oc1cc(O)ccc1C2c1ccccc1 (stereo not given)
→ 6.9 | 13.3 | 7.5 | 4470 | -18.9 | 4.3 | 1.7
CN(CCC#N)C(=O)CC(Cc1ccccc1)C1CCOC(C)(C)C1 (stereo not given)
→ -1.1 | -11.2 | 3.8 | 4340 | -26.1 | -1.2 | 3.4
Nc1ncc(P(=S)(N2CCOCC2)N2CCOCC2)s1
→ . | -4.6 | -3.6 | 5002 | -13.2 | . | -2.2
NC(=NO)c1ccc(Oc2ccccc2Cl)c([N+](=O)[O-])c1
→ -9.4 | . | 4.3 | . | . | -7.9 | 2.9
CCc1noc(C)c1C(=O)OC(C)C(=O)Nc1ccccc1OC (stereo not given)
→ -2.8 | 1.3 | 10.4 | . | -28.9 | 5.4 | 5.7
O=C(O)Cc1c(C(=O)O)nnn1-c1cccc(C(F)(F)F)c1
→ -1.8 | 3.7 | -0.7 | 4775 | -30.2 | -0.8 | 0.7
Cc1ccc(CNCC(O)c2ccccc2)s1 (stereo not given)
→ 7.5 | -19.5 | -0.1 | 4285 | 4.3 | 12.9 | 1.2
CCC(=O)Oc1ccc(C(=O)Nc2cccc(NC(=O)c3ccco3)c2)cc1
→ 16.1 | 0.0 | 0.4 | 4383 | -24.5 | 0.6 | 8.2
CC(c1ccccc1)c1nnc(NC(=O)c2ccc3c(c2)OCO3)s1 (stereo not given)
→ 5.5 | 8.3 | 9.4 | 5467 | -26.7 | 11.6 | 4.7

Remaining list, next part:
Second line of a record – Mtb hypoxia inh | BJeLR lethal | ugtP null kill | Autofluor counter | PrP UTR inh | Mtb hypoxia inh growth | RN4220 kill
O=C(Nc1cccc2nsnc12)c1ccc(-c2ccc(Br)cc2)o1
→ -2.7 | -3.0 | -5.3 | 2417 | -18.9 | 2.0 | -3.0
CCC(C)=NNc1nc2c(c(=O)[nH]c(=O)n2C)n1Cc1ccccc1
→ 8.4 | . | 8.8 | . | . | -3.0 | 5.3
Cc1[nH]c(=S)c(C#N)c2c1CCCC2
→ 13.1 | -6.3 | 17.9 | 3389 | -9.1 | 11.3 | 7.3
CC(=O)N1CCc2cc(S(=O)(=O)NC(Cc3ccccc3)C(=O)NCCN3CCCCC3C)ccc21 (stereo not given)
→ -3.4 | -2.4 | 5.4 | 5064 | -16.5 | -3.3 | 3.1
Cc1ncc(CO)c2c1Oc1nc(-c3ccccc3)nc(SCC(=O)N3CCCCC3)c1C2
→ 14.3 | -5.5 | -1.8 | 5796 | -14.8 | 2.0 | 8.8
CC(C)(C)C1CCC(=NNC(=O)CC(=O)NCc2ccccc2)CC1 (stereo not given)
→ -0.1 | -2.2 | 2.5 | 2154 | -8.5 | 5.6 | 0.5
CC(=O)Nc1ccccc1OC(C)C(=O)N1CC(C)CC(C)C1 (stereo not given)
→ 6.6 | 4.0 | 9.5 | 4027 | -19.3 | 4.0 | 2.8

2 records picked at random from the list so far, as already listed:
Second line of a record – Mtb hypoxia inh | BJeLR lethal | ugtP null kill | Autofluor counter | PrP UTR inh | Mtb hypoxia inh growth | RN4220 kill
Cc1[nH]c(=S)c(C#N)c2c1CCCC2
→ 13.1 | -6.3 | 17.9 | 3389 | -9.1 | 11.3 | 7.3
CC(C)(C)C1CCC(=NNC(=O)CC(=O)NCc2ccccc2)CC1 (stereo not given)
→ -0.1 | -2.2 | 2.5 | 2154 | -8.5 | 5.6 | 0.5

From PubChem
